High-throughput results (PubChem BioAssay)
T cruzi inh: blocks replication of Trypanosoma cruzi. T. cruzi beta-gal in NIH3T3, luminescence, 90 h. AID 1885. inhibition, % (concentration not given with the values). 300,000 compounds, 1.4% hits;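 active = mean inhibition across valid replicates above about 55%, limit read from the data; inconclusive = mean below that limit but half or more replicates reach it; inactive = mean below it, under half of replicates reach it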;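 also: signal also drops with host cell toxicity which is not excluded here; 0% = plate median of DMSO wells and 100% = zero luminescence signal; higher percent means less beta-gal luminescence so fewer parasites; stock transfer was 50 nL into about 50 µL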
Calb FLC: affects C. albicans growth with fluconazole | 300,000 compounds, 0.57% hits | C. albicans CaCi-2 (fluconazole-resistant clinical isolate) + fluconazole, Alamar Blue growth, 48 h | growth inhibition, % (test concentration not listed);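 active = most replicates above 75%; inconclusive = exactly half above 75%; inactive = most below 75%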;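 also: all wells also contain fluconazole at 8 µg/ml as a sub-toxic cotreatment; 0% = median of DMSO wells and 100% = median of geldanamycin control wells; wells of about 8 µL received 7.5 nL stock; the first replicate is given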
RanGTP-Impb inh: inhibitors of RanGTP-importin-beta interaction, primary screen, biochemical, FRET, CFP-Ran, YFP-importin-beta, homogeneous | AID 2216 | cell-free CFP-Ran/YFP-importin-beta FRET ratio | 300,000 compounds, 1.1% hits | inhibition, % (concentration not given with the values);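 active = most replicates above 15%; inconclusive = exactly half above 15%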;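 also: 0% = DMSO wells and 100% = Ran loaded with GDP instead of GTP; wells of about 40 µL received 100 nL stock; the first replicate is given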
Vif A3G: inhibitors of Vif binding to APOBEC3G peptide, primary screen, biochemical, TR-FRET, GST-Vif 1-94, biotin-A3G peptide, dose response retest (AID 1117319) | TR-FRET GST-Vif / biotin-A3G peptide binding; higher % means a stronger effect; test concentration not given here; strong numbers were not always called active | 260,000 compounds, 0.57% hits | inhibition, %; hits with a dose series show IC50 in µM;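 active = above the screen mean plus three standard deviations and confirmed in dose response; inconclusive = results disagree or hit not tested in dose response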;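 also: Vif residues 1-94 fused to GST binding biotinylated APOBEC3G peptide 110-148; 0% = full assay without inhibitor and 100% = GST in place of GST-Vif; retest series ran down from 100 µM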
rRNA inh HTS: inhibits bacterial ribosomal RNA function over humanized ribosomes; 350,000 compounds, 1.6% hits; GFP signal change (wild-type ribosome), % (no concentration beside the values); E. coli WT GFP vs humanized-ribosome RFP mutants, fluorescence, 24 h; stronger effect = lower value; DMSO median 0, no signal -100;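 active = significant combined selectivity score with lowered wild-type GFP, culture density cut under 30%, mutant RFP and density less affected; inactive = any of these conditions unmet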; also: one replicate is shown; some compounds called inactive have numbers as strong as hits
A1 inh: inhibitors of the anti-apoptotic protein A1, read as caspase activation; MEF A1-2A-BIM cells, Caspase-Glo 3/7 luminescence, 3 h; percent of clofoctol response, vehicle zero; caspase activation, % (test concentration not listed); 330,000 compounds, 0.066% hits; AID 2462;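 active = over half of replicate activation scores above 10%, or exactly half above 10 with the replicate mean above 10; inconclusive = replicate mean below 10 yet half the replicates above 10; inactive = over half of replicates below 10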;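 also: wells of about 30 µL received 50 nL stock; many hits fall short of the cut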
AF4-AF9 inh: blocks AF4 peptide binding to human AF9 | AlphaScreen, biotin-AF4 peptide binding to FLAG-AF9 | inhibition, % at 10 µM | 350,000 compounds, 0.47% hits;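 active = every replicate reaching a set inhibition limit, whatever the replicate mean, cut at about 25% in these data; inconclusive = mean inhibition reaches that limit but some replicates miss it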;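 also: 0% = plate neutral control median and 100% = total signal loss; the record names both 10 and 1 µM as test concentration; the first replicate is given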
Target sequence (P42568 whole entry, looked up): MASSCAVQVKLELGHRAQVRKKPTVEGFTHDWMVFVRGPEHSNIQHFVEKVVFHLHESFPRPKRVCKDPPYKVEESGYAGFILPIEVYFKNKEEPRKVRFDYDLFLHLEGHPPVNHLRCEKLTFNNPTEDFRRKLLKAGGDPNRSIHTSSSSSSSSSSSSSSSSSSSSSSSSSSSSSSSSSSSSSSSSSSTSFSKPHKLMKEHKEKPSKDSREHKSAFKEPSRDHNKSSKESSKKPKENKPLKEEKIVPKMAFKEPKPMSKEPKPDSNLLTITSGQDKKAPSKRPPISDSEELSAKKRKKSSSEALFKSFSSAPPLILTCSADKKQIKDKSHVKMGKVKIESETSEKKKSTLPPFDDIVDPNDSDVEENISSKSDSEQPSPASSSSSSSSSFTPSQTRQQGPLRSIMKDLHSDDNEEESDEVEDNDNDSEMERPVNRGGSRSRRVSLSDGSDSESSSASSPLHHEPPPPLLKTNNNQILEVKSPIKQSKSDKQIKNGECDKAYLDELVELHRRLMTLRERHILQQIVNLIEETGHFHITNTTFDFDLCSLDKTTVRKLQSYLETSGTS
Beta cell apopt: beta cell apoptosis inhibition. INS-1E cytokine-induced death, ATP luminescence, 48 h; percent of positive-control rescue, neutral wells zero. protection from apoptosis, % (concentration not given with the values). 300,000 compounds, 0.8% hits. AID 435005;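 active = all replicates at 75% or more, or half of them and the mean; inconclusive = half reach 75% but not the mean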;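 also: 0% = cytokine-treated negative control wells and 100% = positive control rescue; higher means more ATP so stronger rescue from cytokine killing; wells of about 40 µL received 100 nL stock; the first replicate is given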
rRNA inh HTS OD600: further read-out of rRNA inh HTS, marked with its call; OD600 change, %; measured here: OD600 growth;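 optical density of the mix in the first replicate; 0 = DMSO median and -100 = no signal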
rRNA inh HTS RFP: second read-out of rRNA inh HTS, no call of its own (marks repeat the call); RFP signal change, %; measured here: RFP humanized mutant strains;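 first replicate; 0 = DMSO median and -100 = no signal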
* hit, by the source's call; u = inconclusive; x = no result given.

SMILES | T cruzi inh | Calb FLC | RanGTP-Impb inh | Vif A3G | rRNA inh HTS | rRNA inh HTS OD600 | rRNA inh HTS RFP | A1 inh | AF4-AF9 inh | Beta cell apopt
CCOC(CNC(=O)c1cccn2c(=O)c3c(C)c(C)sc3nc12)OCC | 17 | -3 | 3.3 | -4% | 0 | 4 | -5.9 | 0.2 | 2.8 | 6
O=C(NCc1ccco1)C1CCCN(S(=O)(=O)c2ccc(Br)cc2)C1 (stereo not given) | 1 | 10 | -0.7 | -8% | -11 | 6 | 3.1 | 0.2 | -1.0 | -1
CCCc1ncc(C(O)c2cccc(OC)c2OC)n1C (stereo not given) | 0 | -10 | 5.0 | 0% | x | x | x | 0.5 | x | 2
CCOC(=O)c1cc2c(=O)c3ccccc3oc2nc1C | -9 | -3 | 3.0 | x | 15 | 17 | -0.5 | -4.9 | -0.2 | 7
CN(Cc1ccccc1)S(=O)(=O)c1ccc(Cl)c(C(=O)NCc2cccnc2)c1 | 0 | 7 | 2.5 | 0% | -3 | -5 | -0.1 | 0.0 | -9.0 | 1
Cc1ccccc1-n1ncc2c1CC(C)(C)CC2NC(=O)CCn1cncn1 (stereo not given) | -5 | 2 | u | x | 4 | 3 | 2.9 | x | -4.0 | x
O=C(NNC(=O)c1c(O)c2ccccc2[nH]c1=O)c1ccccc1Br | -1 | -24 | 4.9 | x | 8 | 15 | -0.7 | 0.4 | 1.2 | -4
CCc1ccccc1S(=O)(=O)Cc1ccc(C(=O)NC2CCCC2)o1 | 3 | 14 | 0.1 | 2% | -4 | -5 | -0.2 | 0.4 | -1.3 | 3
CCOC(=O)N/N=C\c1ccc([N+](=O)[O-])o1 | 75* | 22 | 7.9 | 18% | x | x | x | -0.1 | x | -9
CC(c1ccccc1)n1c(SCC(=O)N2CC(=O)Nc3ccccc32)nc2ccccc2c1=O (stereo not given) | 3 | -15 | -2.6 | 29% | x | x | x | -0.4 | x | -1
c1ccc(OCCOc2ccccc2-c2nnco2)cc1 | 0 | -30 | 1.1 | 3% | x | x | x | -1.4 | x | -14
COc1ccc(C(=O)N2CCN(Cc3ccccc3C)CC2)cc1OC | 10 | 6 | 0.0 | 10% | x | x | x | 0.5 | x | -3
CCOc1ccc(CCNC(=O)c2cc3sccc3n2C)cc1OCC | 3 | -16 | -5.6 | 5% | x | x | x | -0.2 | x | 1
COC(=O)c1ccc(CSc2cc(C)c3ccccc3n2)o1 | -17 | -45 | -0.4 | -9% | -22* | -17* | -1.2* | 0.9 | -2.7 | -3
Cc1nc2ccccc2nc1CSc1nnc(N)s1 | 5 | 7 | 3.5 | 6% | x | x | x | 0.4 | x | 1
COc1cc2cc(CCCOC(=O)c3ccc(F)cc3)oc(=O)c2cc1OC | x | x | x | x | -25* | -12* | 0.1* | -1.3 | -7.1 | 1
Cc1c(C(=O)N/N=C/c2ccccc2)[nH]c2ccc(Cl)cc12 | -19 | -2 | 9.5 | 6% | 3 | 5 | -2.7 | 0.5 | -1.4 | 4
COc1ccc(-c2nc3c(c(=O)n(C)c(=O)n3C)n2CC2CC(c3ccccc3)=NO2)cc1OC (stereo not given) | -14 | 3 | 0.8 | x | x | x | x | 0.3 | x | -2
COc1ccc(NCC(=O)N/N=C/c2cc([N+](=O)[O-])ccc2N2CCCC2)cc1 | 18 | 0 | u | -7% | -15 | -4 | 1.0 | 1.4 | 2.2 | 10
Cn1c(=O)c2c(ncn2CC(=O)OCC(=O)Nc2ccc(Cl)cc2)n(C)c1=O | -25 | -1 | 8.2 | x | x | x | x | -0.4 | x | -5

Overlap with the part before: 2 compounds; new compounds follow.
SMILES | T cruzi inh | Calb FLC | RanGTP-Impb inh | Vif A3G | rRNA inh HTS | rRNA inh HTS OD600 | rRNA inh HTS RFP | A1 inh | AF4-AF9 inh | Beta cell apopt
COc1ccc(NCC(=O)N/N=C/c2cc([N+](=O)[O-])ccc2N2CCCC2)cc1 | 18 | 0 | u | -7% | -15 | -4 | 1.0 | 1.4 | 2.2 | 10
Cn1c(=O)c2c(ncn2CC(=O)OCC(=O)Nc2ccc(Cl)cc2)n(C)c1=O | -25 | -1 | 8.2 | x | x | x | x | -0.4 | x | -5
CC(C)COC(=O)c1ccccc1N1C(=O)C2C3CCC(C3)C2C1=O (stereo not given) | -7 | 20 | 3.2 | -3% | 3 | 3 | -1.9 | 0.0 | -4.6 | -2
Nc1nonc1-n1nnc(C(=O)N/N=C/C2CC=CCC2)c1CSc1ccccc1 (stereo not given) | -5 | -14 | 2.8 | -6% | 2 | -10 | -1.1 | -0.1 | -7.6 | 1
CC(C)(C)c1ccc(NC(=O)N2CCCN(c3ccc([N+](=O)[O-])cn3)CC2)cc1 | 9 | 0 | -0.7 | 22% | -34 | -42 | 5.9 | 0.6 | 5.1 | -5
O=C(CCC(=O)N(c1ccccc1)C(C(=O)NC1CCCC1)c1ccncc1)Nc1cccnc1 (stereo not given) | -5 | -3 | -3.9 | 0% | x | x | x | -1.7 | x | -4
CC(Oc1coc(CN2CCN(C(=O)c3ccco3)CC2)cc1=O)c1ccccc1 (stereo not given) | -2 | 6 | 2.4 | x | 6 | 2 | -1.4 | 0.2 | -20 | x
CCOc1cc(/C=C2/SC(=S)NC2=O)ccc1OC(=O)c1ccco1 | -6 | 62 | -2.4 | u | 7 | 0 | 22 | 1.8 | 0.7 | x
COc1ccc(NC(=O)c2cc3ccccc3o2)cc1OC | 1 | 20 | 1.4 | x | 1 | 5 | -0.6 | -1.9 | 6.4 | x
Clc1ccc(Sc2cnc3ccccc3n2)cc1 | -6 | -1 | -3.3 | -10% | x | x | x | -0.2 | x | -20
Cc1ccc(C(=O)Nc2cc(Cl)ccc2N2CCCCC2)s1 | 32 | 11 | 1.3 | 4% | x | x | x | -0.8 | x | -2
COc1cc(OC)c(C(=O)N(CCc2ccccc2)Cc2ccccc2)cc1OC | 6 | 23 | 1.0 | x | -13 | -22 | 0.5 | -0.6 | 2.7 | -2
COc1ccc(CCNC2=C(Cl)C(=O)N(CCc3ccccc3)C2=O)cc1OC | 27 | 1 | -1.4 | -1% | x | x | x | -0.7 | x | 5
CCOC(=O)N1CCN(C(=O)C2CCC(=O)N(CCCN3CCCC3=O)C2)CC1 (stereo not given) | -7 | -1 | -1.8 | -5% | 10 | 14 | 0.4 | 0.1 | 1.0 | -1
CCOc1ccc(OCCC(=O)OCC(=O)N2CCN(S(=O)(=O)c3ccc(Cl)cc3)CC2)cc1 | -10 | 3 | 2.6 | x | 0 | 3 | 1.5 | -0.7 | -2.3 | -24
O=C(CN1C(=O)c2cccc3cccc1c23)Nc1ccc(S(=O)(=O)Nc2nccs2)cc1 | 4 | 1 | 2.6 | u | x | x | x | 0.5 | x | -5
Cc1ccc(S(=O)(=O)N2CCN(C(=O)COC(=O)C3CCC3)CC2)c(C)c1 | -15 | 0 | -0.9 | 1% | 7 | 6 | 4.5 | 1.2 | -0.4 | -4
Cn1c(SCC(=O)Nc2ccc3c(c2)OCCO3)nnc1C1CC1 | 12 | 0 | 1.9 | x | 4 | 12 | -0.6 | 0.1 | 1.8 | -3
CN(c1ccc(C(=O)N2CCOCC2)cc1)S(=O)(=O)c1cccs1 | -7 | -4 | 7.6 | -2% | 10 | 4 | -1.7 | 0.8 | 0.8 | -2
COCCn1cc(-c2csc(N)n2)c2ccccc21 | 1 | 53 | -3.2 | 20% | 9 | 9 | 1.7 | -0.8 | 1.3 | x
O=C(Nc1ccccc1)c1ccc(COc2ccccc2)cc1 | -44 | 1 | 4.6 | -7% | 0 | 8 | -1.1 | -6.9 | -1.2 | 7
COc1ccc(C(C)=O)cc1CSCCC#N | x | 1 | -3.2 | 4% | x | x | x | -1.1 | x | -2
COc1ccc(OCC(=O)Nc2ccc(S(=O)(=O)Nc3nc(C)cc(C)n3)cc2)cc1 | -25 | -3 | 2.6 | 21% | 2 | -3 | 0.5 | -0.8 | -1.0 | -3
O=C(OCc1csc(Nc2ccccc2)n1)c1ccc(Cl)cc1 | 6 | -12 | 1.7 | x | x | x | x | 0.0 | x | -9
CC(Sc1nc2ccccc2s1)C(=O)c1c(N)n(C)c(=O)n(C)c1=O (stereo not given) | 2 | u | 0.4 | 25% | -4 | -3 | 1.3 | -0.7 | -18 | 13
CCNc1nc(Cl)nc(NNC(=O)C(C)Oc2ccccc2)n1 (stereo not given) | -10 | -3 | -1.3 | 6% | x | x | x | -0.1 | x | -1
Cc1csc(NC(=O)CSc2nncn2C)n1 | -18 | -24 | u | 7% | x | x | x | 0.6 | x | x
CCCCn1c(=NC(=O)c2cccnc2)c(C#N)cc2c(=O)n3cccc(C)c3nc21 | 23 | 49 | 107* | 56µM* | x | x | x | 0.0 | x | 5
CC(C)(C)NC(=O)COC(=O)c1ccc(Cl)c(S(N)(=O)=O)c1 | x | 1 | x | x | -1 | -2 | -5.2 | -0.8 | -0.4 | -5
NS(=O)(=O)c1cccc(NC(=O)COC(=O)CCN2C(=O)c3ccccc3C2=O)c1 | x | x | x | -3% | x | x | x | -0.7 | -0.5 | -5
S=C(c1ccc[nH]1)N1CCOCC1 | 15 | 28 | 0.5 | 3% | x | x | x | -0.3 | x | -2
CNC(=O)c1c(NC(=O)c2ccc(S(=O)(=O)N3CCCc4ccccc43)cc2)sc2c1CCN(C)C2 | 50 | -6 | 28* | 33% | 0 | -5 | 3.9 | -0.4 | 6.1 | 1
O=C1C(c2cc(=O)c3ccccc3[nH]2)=C(O)c2ccccc21 | 14 | 22 | -20 | -2% | x | x | x | -6.1 | x | 16
NC(=O)[C@H]1CC2(CC(c3cccc(NC(=O)CC(c4ccccc4)c4ccccc4)c3)=NO2)CN1C(=O)C(c1ccccc1)c1ccccc1 (stereo not given in full) | u | -3 | 3.3 | u | -2 | 3 | -20 | 0.6 | 1.1 | 16
Cc1ccc2c(CN3CCN(CCO)CC3)cc(=O)oc2c1 | 44 | -3 | 1.2 | 2% | x | x | x | 1.4 | x | -1
N#C/C=C/N1CCN(C(=O)c2ccco2)CC1 | x | x | x | 0% | 19 | 17 | 6.9 | 0.1 | -1.2 | 5
CC(C)CCNC(=O)c1sc2ccc(S(=O)(=O)N3CCCCC3)cc2c1N | -13 | 8 | 3.8 | -4% | -13 | 1 | 2.6 | 0.7 | -9.3 | 2
COc1ccc(-c2ccnc3c(Br)c(C)nn23)cc1 | x | x | x | -5% | -5 | -2 | -0.3 | -0.7 | -10 | -3

This is a subset; rates above refer to the full screens.
